PV pol inh = inhibitors of poliovirus RNA polymerase binding and polymerization | % elongation, % (compound at 16.7 µg/mL) | poliovirus polymerase elongation, fluorescence polarization; hits give low values | 0.66% of 150,000 active | AID 588519 | P03300; in the data active = % elongation below about 90%; also: some results filed as inactive read as strong as hits
Target sequence (P03300 1749-2209 limits assumed): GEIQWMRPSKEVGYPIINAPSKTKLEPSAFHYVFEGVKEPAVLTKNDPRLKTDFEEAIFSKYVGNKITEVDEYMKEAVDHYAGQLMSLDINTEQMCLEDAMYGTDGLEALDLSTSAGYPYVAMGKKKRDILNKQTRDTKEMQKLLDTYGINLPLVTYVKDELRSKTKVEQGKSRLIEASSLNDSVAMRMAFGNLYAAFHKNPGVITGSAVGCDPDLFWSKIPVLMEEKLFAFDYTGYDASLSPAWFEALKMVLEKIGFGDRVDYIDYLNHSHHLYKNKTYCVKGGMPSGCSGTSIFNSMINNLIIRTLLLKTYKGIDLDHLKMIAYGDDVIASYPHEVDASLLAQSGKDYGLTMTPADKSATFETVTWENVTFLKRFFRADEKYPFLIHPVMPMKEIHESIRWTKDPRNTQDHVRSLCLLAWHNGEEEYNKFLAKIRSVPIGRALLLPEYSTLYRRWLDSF
MbtI inh = MbtI salicylate synthase inhibition; 0.89% of 100,000 active; inhibition, %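 (about 17 µg/mL by stock and volumes)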; AID 493033; purified MbtI enzyme, fluorescence intensity read-out;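 active = above 50% in both replicates, above 80% if mildly self-fluorescent; inactive = the rest, strongly fluorescent compounds included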;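 also: 0% = mean of negative and 100% = mean of positive controls; one replicate is shown; some compounds called inactive have numbers as strong as hits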
Mtb MenB inh = blocks the Mycobacterium tuberculosis MenB enzyme; 0.43% of 100,000 active; MenB enzyme assay, absorbance read-out; some hits fall short of the stated cut; inhibition, %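 (about 12 µg/mL by stock and volumes)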; AID 540299; P9WNP5;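 active = mean of two replicates above 30%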;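 also: 0% = no compound and 100% = wells with inactive enzyme; the first replicate is given; strong numbers were not always called active; inactives centre near -10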
Target sequence (P9WNP5 whole entry, looked up): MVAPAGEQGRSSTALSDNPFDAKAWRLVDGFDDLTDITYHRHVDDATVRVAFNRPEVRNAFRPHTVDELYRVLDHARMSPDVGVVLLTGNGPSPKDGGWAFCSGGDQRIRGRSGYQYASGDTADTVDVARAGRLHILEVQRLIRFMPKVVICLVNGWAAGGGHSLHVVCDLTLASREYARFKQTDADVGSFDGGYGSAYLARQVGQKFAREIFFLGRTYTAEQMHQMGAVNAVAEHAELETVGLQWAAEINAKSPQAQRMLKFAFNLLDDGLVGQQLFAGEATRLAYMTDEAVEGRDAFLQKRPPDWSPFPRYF
PV pol inh intensity = further read-out of PV pol inh, marked with its call; % elongation; measured here: total intensity read-out; formula for this scale not given here;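 total fluorescence in place of polarization; lower means less elongation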
* hit, by the source's call; i = inactive; nt = not tested or not shown; & = joins results of further samples.

SMILES	PV pol inh	PV pol inh intensity	MbtI inh	Mtb MenB inh
CCCNC(=O)CSc1nc2sc(C)c(C)c2c(=O)n1C1CCCC1	105	100	7	12
CC(=O)Nc1cc(S(=O)(=O)C(F)(F)F)ccc1C	100	103	-6	-23
Oc1oc(-c2ccco2)nc1/C=N/c1ncn[nH]1	96	103	-1	-25
O=C1C2C3C=CC(C3)C2C(=O)N1CCO (configuration not stated)	105	113	-14	-11
CN(C)/C(=N\S(=O)(=O)c1ccccc1)c1ccccc1	105	102	14	-20
O=C(NCC1CCCCC1)c1ccc(F)c(S(=O)(=O)N2CCOCC2)c1	103	101	-3	15
Cc1cc2nc(S(=O)(=O)Cc3cccc(C(F)(F)F)c3)[nH]c2cc1C	104	111	nt	-17
OC(Cc1ccccc1)(c1ccccc1)c1ccccc1N=Cc1ccc2c(c1)OCO2 (configuration not stated)	105	104	-9	-18
Cc1cc(C(=O)Nc2ccc3c(c2)-c2ccccc2C3)no1	104	110	-9	-3
C=CCn1c(C)nnc1SCC(=O)NCC12CC3CC(CC(C3)C1)C2	101	94	-7	-30
Cc1ccc(C)c(NC(=O)C23CC4CC(CC(O)(C4)C2)C3)c1	96	110	-5	-20
CCc1ccc(C(=O)N2CCCC2)s1	100	102	4	-2
CC(C)CNCC(=O)N(C1CCCCC1)C1CCCCC1	102	103	1	-14
O=c1[nH]cc(S(=O)(=O)Nc2ccccc2)c(=O)[nH]1	96	97	0	9
N#CCC1CCCO1 (configuration not stated)	104	107	-5	-20
O=C(CO)Nc1ccc2c(c1)OCCO2	104	107	-3	-25
O=C(Nc1ccccc1)c1cc(=O)[nH]c2ccccc12	103	103	-1	nt
COc1ccc(C(=O)C2=NN(C(C)=O)CC2c2ccco2)cc1 (configuration not stated)	102	103	14	-3
NC(=O)/C(=N\OC(=O)c1ccco1)c1nc(-c2ccc(Br)cc2)cs1	103	106	48	-34
Nc1ccccc1C(=O)NCC(=O)O	97	105	103	-19
COC(=O)c1ccc(Oc2nc(OC)nc(N(C)C)n2)cc1	99	100	1	-14
CCn1c(=O)cc(SCC(=O)Nc2cccnc2)c2ccccc21	99	102	17	-6
CC(C)(C)C(=O)C(O)C(C)(C)C (configuration not stated)	102	97	20	-23
NC(=S)c1cc2ccc(O)cc2oc1=O	103	113	59	i
CCc1ccc(NC(=O)CSc2nc(=O)n(CCN3CCOCC3)c3c2CCC3)cc1	104	109	-31	-13

(cont.)
SMILES	PV pol inh	PV pol inh intensity	MbtI inh	Mtb MenB inh
COCCNC(=S)N1CCC(NC(C)=O)CC1	100	103	-8	11
COc1ccc(CC(=O)Nc2cccc(-c3nnc(-c4ccco4)o3)c2)cc1	99	97	54	-25
O=C(CCCN1C(=O)S/C(=C/c2ccccc2)C1=S)NC12CC3CC(CC(C3)C1)C2	101	108	nt	-7
O=C(c1ccco1)N1CCN(c2c3c(nc4nncn24)CCC3)CC1	101	102	-15	9
FC(F)(F)c1cc(-c2ccccc2)nc(NCC2CCCO2)n1 (configuration not stated)	99	100	-15	-22
CCOC(=O)N1c2ccccc2CC1C (configuration not stated)	101	97	10	-27
CCOCc1cc(C)[nH]n1	105	101	-9	-43
COc1cccc(CN(C)C(=O)c2ccc3ccccc3n2)c1OC	102	106	-1	-11
C=CCSc1nnc(Cc2c(C)[nH]c3ccccc23)o1	105	109	-9	1
Cc1csc(=Nc2ccc(S(=O)(=O)N3CCOCC3)cc2)n1Cc1ccco1	107	111	-2	-37
C=CCSc1nnc(NC(=O)c2cn(-c3ccccc3)nc2-c2ccccc2)s1	107	111	-12	-27
COc1ccc(CNC(C(=O)NC(N)=O)C(C)C)cc1OC (configuration not stated)	102	91	-5	-6
CCCCC[C@H](O)/C=C/[C@@H]1[C@H]2C/C(=C/CCCC(=O)O)O[C@H]2C[C@H]1O	101&99	104&104	-15	9
CCOC(=O)c1c(S(=O)(=O)N2CCCC2)c(C)n(C)c1C	102	103	-19	-4
O=C1NNC(SCc2ccc(Br)cc2)=Nc2ccccc21	106	106	11	-10
CCNc1nc(NCC)nc(SCCOc2ccc(Br)cc2)n1	101	102	7	-37
COCCNC(=O)c1ccc(CS(=O)c2cccc(C)c2)o1 (configuration not stated)	101	103	-10	-8
CCCCC1(CC(=O)N2CCCCC2)C(=O)N(c2ccccc2)N(c2ccccc2)C1=O	98	104	-4	-1
CON(C)S(=O)(=O)c1cc(C(=O)OC(C)C(=O)Nc2ccc(N3CCOCC3)cc2)ccc1Cl (configuration not stated)	104	103	5	-7
CCN1CCCC1CNC(=S)Nc1cccc(C)c1 (configuration not stated)	105	108	-5	-7
NC(=O)C1CCN(c2ccnc3cc(Cl)ccc23)CC1	101	100	12	-3
CC1(C)C=C2C(=NN(c3ccccc3)C(N)=C2C#N)CO1	98	61	5	3
CN(C)c1cccc(C(=O)NC2CCCc3ccccc32)c1 (configuration not stated)	103	108	-80	-13
O=C(c1nn(-c2ccccc2)c(=O)c2ccccc12)N1CCN(c2ccccc2)CC1	103	107	-28	-2
COc1ccc(Nc2nc(SC)nc(-c3ccccc3)c2C#N)cc1OC	101	100	-19	-6

Structures shown so far that contain a cyano group, in the order listed:
SMILES	PV pol inh	PV pol inh intensity	MbtI inh	Mtb MenB inh
N#CCC1CCCO1 (configuration not stated)	104	107	-5	-20
CC1(C)C=C2C(=NN(c3ccccc3)C(N)=C2C#N)CO1	98	61	5	3
COc1ccc(Nc2nc(SC)nc(-c3ccccc3)c2C#N)cc1OC	101	100	-19	-6

The results go on.
SMILES	PV pol inh	PV pol inh intensity	MbtI inh	Mtb MenB inh
c1ccc2oc(SCCSc3nc4ccccc4o3)nc2c1	106	102	nt	-1
Cc1cccc(N(C(=O)c2cnc3n(c2=O)CCS3)C2CCCCC2)c1	102	101	-3	-9
CCNS(=O)(=O)c1ccc(NC(=O)c2cncc(Br)c2)cc1	102	109	13	-18
Sc1ccc2c(c1)OCCCO2	98	99	94*	6
COc1ccc(NC(=O)CCc2c(C)noc2C)cn1	104	118	1	-23
c1cc(C2OCC3(CO2)COC(c2ccncc2)OC3)ccn1 (configuration not stated)	97	102	-77	-1
CCNC(=O)N(C)Cc1nc(-c2ccc(OC)cc2)no1	103	103	-2	9
CCN1C(=O)c2ccc(C(=O)Nc3ccc(C(=O)O)cc3)cc2C1=O	99	102	-10	-14
O=C(CC12CC3CC(CC(C3)C1)C2)Nc1ccc(-c2nc3ncccc3o2)cc1	102	100	116	-12
CCC1=Nc2cc(C(=O)NCCCN3CCOCC3)ccc2Sc2ccc(Br)cc21	100	98	0	-15
CCN(CC)S(=O)(=O)c1ccc2c(c1)c(=O)c(C(=O)N1CCCC1)cn2C	101	101	-2	-14
COc1ccccc1NC(=O)C1CCCC1	95	103	-50	-119
Cc1cc2cc(CNC(=O)C3CCCCC3)ccc2[nH]1	102	102	3	-24
O=C(CCN(/N=C/c1ccco1)C1=NS(=O)(=O)c2ccccc21)NC1CCCCC1	104	100	1	11
Cc1cc(NC(=O)CCCCCN2CCOCC2)no1	103	96	18	-2
Cn1c(SCCN2CCCC2)nnc1C1CCN(S(=O)(=O)c2cccc(F)c2)CC1	101	103	-4	-19
CC(O)c1nc2ccccc2n1C1CCCCC1 (configuration not stated)	100	93	-11	nt
Cc1ccccc1Cn1c2ccccc2c2cnn(CC(=O)NC(C)C)c(=O)c21	100	104	5	-14
Cc1cccc(N2CCN(Cc3ccccc3F)CC2)c1C	97	101	-11	-50
O=C1C(=Cc2cn(CC(=O)N3CCOCC3)c3ccccc23)C(=O)c2ccccc21	107	107	1	-2
O=C(Cn1c(=O)sc2ccccc21)OC(C(=O)c1ccccc1)c1ccccc1 (configuration not stated)	106	106	nt	-29
CC(C)CNS(=O)(=O)c1cc(C(=O)O)c(Cl)cc1Cl	97	89	8	-21
COc1cc(CCC(=O)OCC(=O)N2CC(=O)Nc3ccccc32)cc(OC)c1OC	100	97	14	-24
CN(Cc1ccccc1)Cc1c(F)cccc1F	102	103	-21	-14
COC(=O)c1ccc(NC(=O)CNC(=O)C2CCCCC2)cc1	102	105	-7	nt

Record cards, as listed above:
Entry for `CC1(C)C=C2C(=NN(c3ccccc3)C(N)=C2C#N)CO1` : PV pol inh: 98; PV pol inh intensity: 61; MbtI inh: 5; Mtb MenB inh: 3
Entry for `C=CCn1c(C)nnc1SCC(=O)NCC12CC3CC(CC(C3)C1)C2` : PV pol inh: 101; PV pol inh intensity: 94; MbtI inh: -7; Mtb MenB inh: -30

Following part
SMILES	PV pol inh	PV pol inh intensity	MbtI inh	Mtb MenB inh
CC(=O)Nc1cc(C(=O)N2CCC3(CC2)OCCO3)ccc1S(=O)(=O)c1ccc(Cl)cc1	100	101	-24	-22
CNc1c(C(=O)c2ccc(F)cc2)sc(N)c1C#N	102	103	13	-33
Cc1ccc(C(=O)N(C)CCC#N)cc1C	100	98	5	7
CN1CCC(=NN=C(c2ccccc2)c2ccccc2)CC1	106	110	-1	-3
O=C(NCCC(c1ccccc1)c1ccccc1)c1cccnc1Cl	101	90	nt	-35
O=C(c1c(F)c(F)c(F)c(F)c1F)N(CCO)Cc1ccccc1	102	104	-21	-9
CN1N=C2c3ccccc3CCC2C1c1cccs1 (configuration not stated)	104	105	21	-26
CCN=c1scc(-c2ccc3c(c2)NC(=O)CO3)n1N=C1CCCC1	165	162	21	-44
COc1ccc(-n2c(=O)c3c4c(sc3n(CC(=O)Nc3cc(C)[nH]n3)c2=O)CCCC4)c(OC)c1	101	107	-4	-6
O=c1oc2ccccc2n1CC1CCCN1S(=O)(=O)c1ccc(-n2cnnn2)cc1 (configuration not stated)	103	102	-23	-8
C=CC[C@@H]1/C=C(\C)C[C@H](C)C[C@H](OC)[C@H]2O[C@@](O)(C(=O)C(=O)N3CCCC[C@H]3C(=O)O[C@H](/C(C)=C/[C@@H]3CC[C@@H](O)[C@H](OC)C3)[C@H](C)[C@@H](O)CC1=O)[C@H](C)C[C@@H]2OC	101	98	-2	nt
CC1CCCCN1CC(=O)c1cc(Cl)ccc1Cl (configuration not stated)	105	108	-4	-8
CC(C)(C)c1ccc(C(=O)OCc2ccc3c(c2)OCO3)s1	95	100	-12	-10
CCOC(=O)c1ccc2nc(CCC(=O)O)c(=O)n(CC)c2c1	93	111	72	-19
O=C(NCC(=O)c1cccs1)c1ccc(CSc2ccccc2)o1	100	103	6	-6
Cc1noc(C)c1CSc1ccccc1C(=O)Nc1ccccc1N1CCCC1	99	102	31	-30
CC1=NOC(=O)/C1=C\c1ccc(O)c(O)c1	103	109	44	-66
CCOC(=O)/C=C1\SC(C)C(=O)N1CC(=O)c1ccc(Br)cc1 (configuration not stated)	100	106	0	0
OC(CCN1CCCCC1)(c1ccccc1)C1CC2C=CC1C2 (configuration not stated)	101	101	1	-19
CCCS(=O)(=O)c1nc2ccccc2n1Cc1cc(C)ccc1C	104	109	0	-32
CCCc1nc(C)cc(N2CCCC2)n1	102	101	23	17
Cc1ccc(NC(=O)COc2ccc(Cl)cc2)cc1N(C)C	102	100	-9	-7
CCCCN(CC)S(=O)(=O)c1ccc(C(=O)N=c2sc(C(=O)OCC)c(C)n2C)cc1	105	107	52	-23
COc1ccccc1NS(=O)(=O)c1ccc(C(=O)N2CCN(c3ccccn3)CC2)cc1	103	105	2	2
CCCNS(=O)(=O)c1ccc(OCC(=O)NCc2ccco2)cc1	100	100	-1	9

Continued.
SMILES	PV pol inh	PV pol inh intensity	MbtI inh	Mtb MenB inh
CCOc1ccc(C2(CC(=O)Nc3ccccc3)C(=O)c3ccccc3C2=O)cc1OC	99	101	-3	-11
CC(=O)Nc1c2c(nn1-c1ccc(C)cc1)CSC2	100	101	4	3
CCCCN1CCC(O)(c2ccccc2)C(C(=O)c2ccccc2)C1 (configuration not stated)	99	103	10	8
O=C(Nc1ccc(Cl)cn1)C1(F)C(F)(F)C(F)(F)C(F)(F)C(F)(F)C1(F)F	100	98	-1	-23
S=C(NCC1CCCCC1)Nc1cccnc1	102	102	-9	0
CCCCn1c(Br)nc2c1c(=O)[nH]c(=O)n2C	101	97	14	-23
Cc1ccc(CN2CCN(/N=C/C=C/c3ccco3)CC2)cc1	105	107	-1	-3
Cc1ccc(OCCn2c(N)nc3ccccc32)cc1	103	106	-6	-18
O=C(O)CCC(=O)N1CCC(c2ccccc2)=N1	96	100	49	2
COc1ccccc1-[n+]1c(C)cc(C)cc1C	105	110	-8	nt
Cc1ccc(CN2CCC(CNS(=O)(=O)c3ccc4c(c3)CCCC(=O)N4)C2)cc1 (configuration not stated)	105	103	-4	-24
Nc1cc(Cl)ccc1N1CCCCC1	100	89	nt	-14
CC1=CC(c2ccc(Cl)cc2)n2nc(NC(=O)CCCC(=O)O)nc2N1 (configuration not stated)	99	97	89	-23
Cc1ccc(NCc2nnc(SCC(=O)N3c4ccccc4CCc4ccccc43)o2)c(C)c1	101	100	36	-67
COc1ccccc1OCC(=O)NCCCN1CCOCC1	102	103	-11	-29
S=c1nc(NC2CC2)c2ccccc2[nH]1	101&104	99&107	24&18	-15&3
CNc1c(NS(=O)(=O)c2ccc(OC)cc2)c(=O)oc2ccccc12	102	103	102	-14

Exported bar-delimited: 6 of the compounds above.
Structure | PV pol inh | PV pol inh intensity | MbtI inh | Mtb MenB inh
COc1ccccc1-[n+]1c(C)cc(C)cc1C | 105 | 110 | -8 | nt
Cc1ccc(CN2CCC(CNS(=O)(=O)c3ccc4c(c3)CCCC(=O)N4)C2)cc1 (configuration not stated) | 105 | 103 | -4 | -24
Nc1cc(Cl)ccc1N1CCCCC1 | 100 | 89 | nt | -14
CC1=CC(c2ccc(Cl)cc2)n2nc(NC(=O)CCCC(=O)O)nc2N1 (configuration not stated) | 99 | 97 | 89 | -23
Cc1ccc(NCc2nnc(SCC(=O)N3c4ccccc4CCc4ccccc43)o2)c(C)c1 | 101 | 100 | 36 | -67
COc1ccccc1OCC(=O)NCCCN1CCOCC1 | 102 | 103 | -11 | -29

From PubChem
